Bioassay records deposited in PubChem by National Center for Advancing Translational Sciences (NCATS).
2A Renilla – lowers the Renilla signal of an FMDV 2A StopGo reporter. HEK cells with a luciferase reporter of 2A StopGo recoding. Potency, µM (highest dose often 57.5 µM), inactives show at the top dose signal change, negative = less light. hit rate 0.32% among 120,000. AID 1745857; active means well fitted falling curve with a large enough effect; inconclusive means small, poorly fitted or top-dose-only effect; inactive means no such curve, though single readings can be large or run the other way; note: nearly all actives have a fitted effect of over 55% in size; overnight with compound
StopGo FLuc – FMDV 2A StopGo reporter, firefly signal. HEK cells with a luciferase reporter of 2A StopGo recoding. Potency, µM (highest dose often 57.5 µM), for inactives: at the highest dose signal change, negative = less light. hit rate 0.23% among 120,000. AID 1745856; active = well fitted falling curve with a large enough effect; inconclusive = small, poorly fitted or top-dose-only effect; inactive = no such curve, though single readings can be large or run the other way; note: nearly all actives have a fitted effect of over 60% in size; overnight with compound
* = called active by the depositor; u = inconclusive; & = joins results of further samples; [ ] = another dose, or the depositor's remark. % is set by controls: 0 for no effect and ±100 for the full control effect; potency is the fitted concentration of half-maximal effect. Not a hit list. Share with any hit: about 0.53%.

SMILES | 2A Renilla | StopGo FLuc
COc1ccc(C(c2c(O)cc(C)n(Cc3ccco3)c2=O)N2CCCCC2)cc1OC (stereo not given) | 28% | 0%
CSc1ncc(Cl)c(C(=O)Nc2ccc(NC(C)=O)cc2)n1 | 18% | -8%
O=C(COc1ccc(-c2nnc(Nc3ccccc3)c3ccccc23)cc1)N1CCCCC1 | 6% | 22%
Cc1ccc2cc3cc(C(=O)N4CCN(c5ccccc5)CC4)sc3nc2c1 | -10% | 12%
CCCc1ccc(C(=O)C(C)OC(=O)c2c(OC)cccc2OC)cc1 (stereo not given) | -12%[1.06 µM] | u
CCCn1nc(C(=O)Nc2ncc(Cc3ccc(F)cc3)s2)ccc1=O | 25µM* | 32µM*
O=C(N/N=C1/CCSC1)C1CCCCC1 | 8% | 0%
CCOC(=O)CSc1nc2ccccc2c(=O)n1-c1ccccc1OCC | -12% | -1%
CCOC(=O)CN(C)Cc1cc(=O)oc2cc(C)c(Cl)cc12 | 5% | 0%
Cc1ccc(CCNC(=O)c2ccc3c(c2)N(Cc2cccc(F)c2)C(=O)c2ccccc2S3)cc1 | -5% | -9%
CCOc1ccc(-n2nc(CO)c(C(=O)NCCCc3ccccc3)n2)cc1 | -19% | 46%[activator]
COc1ccccc1NC(=O)CSCc1cc(=O)c2cccc(Cl)c2[nH]1 | 6% | 2%
O=C(NCC1CCN(Cc2cccc(Cl)c2)CC1)Nc1cc(Cl)ccc1Cl | -18% | -17%
Cc1ccc(N/N=C/c2ccc(C(C)(C)C)cc2)cc1Cl | -3% | 45%[activator]
CC1(C)CC(=O)C2=C(C1)Nc1nc(N)[nH]c(=O)c1C2c1ccc(Cl)cc1 (stereo not given) | -4% | -14%
Cc1cccc2c(C(=O)O)cc(-c3ccccn3)nc12 | 0%&3% | 1%&3%
CCC1CN(C(=O)Nc2ccccc2C(F)(F)F)c2ccccc2S1 (stereo not given) | -9% | -9%
CC(C)n1nc(C(=O)N2CCC(C(=O)O)CC2)c2ccccc2c1=O | -8% | -2%
O=C(Nc1ccc2nc3n(c(=O)c2c1)CCCCC3)C(=O)N1CCN(c2ccc(F)cc2)CC1 | -11% | -11%
COC(=O)CNC(=O)COC(=O)c1cc(=O)c2ccccc2o1 | -13% | -9%
CCOc1ccc(NC(=O)c2cccc(Nc3ccnc(-c4ccc(F)cc4)n3)c2)cc1 | u | 21%
Cc1ccc(NC(=O)/C=C/c2ccccc2Cl)cc1Cl | 8% | 153%[activator]
Cc1ccc(NC(=O)c2sc3c(c2C)C(c2cccnc2)CC(=O)N3)cc1 (stereo not given) | -26% | 117%[activator]
Cc1ccc(-c2cc(C(=O)OCC(=O)NC3CC3)c3ccccc3n2)cc1 | 2% | 47%[activator]
N#Cc1ccc(C(=O)NC(c2cccs2)C2CC2)cc1 (stereo not given) | 13% | 0%

Four of the compounds above, in markdown:
| structure | 2A Renilla | StopGo FLuc |
| --- | --- | --- |
| Cc1cccc2c(C(=O)O)cc(-c3ccccn3)nc12 | 0%&3% | 1%&3% |
| CCOC(=O)CSc1nc2ccccc2c(=O)n1-c1ccccc1OCC | -12% | -1% |
| Cc1ccc(-c2cc(C(=O)OCC(=O)NC3CC3)c3ccccc3n2)cc1 | 2% | 47%[activator] |
| O=C(Nc1ccc2nc3n(c(=O)c2c1)CCCCC3)C(=O)N1CCN(c2ccc(F)cc2)CC1 | -11% | -11% |

(next part)
SMILES | 2A Renilla | StopGo FLuc
COC(=O)c1c(SC)nc2ccccc2c1OCc1ccc(Br)cc1 | -7% | -13%
O=C(Nc1ccc(C(=O)Nc2cccc3ncccc23)cc1)c1ccccc1 | 1% | 10%
O=C(COc1ccc(F)cc1)Nc1ccccc1C(=O)OCc1cc(=O)n2nc(C3CC3)sc2n1 | 3% | 0%
O=C(CCc1ncc(-c2ccc(F)cc2F)o1)N1CCN(c2ccccc2)CC1 | 3% | 24%
CN(C)c1ccc(-c2cc(-c3ccccc3)nc(-c3ccccc3)c2)cc1 | -15% | 0%
Cc1ccc(-n2cccc2C=O)c(C)c1 | 10% | 0%
N#Cc1ccc(C(=O)Nc2ccc(Cl)c(-c3nc4cc(Cl)ccc4o3)c2)c(F)c1 | -9% | -23%
CCCC(=O)NCc1nnnn1-c1ccc(OCC)cc1 | 11% | 25%
Cc1c(Cl)cccc1NC(=O)c1ccc2c(c1)CCN2S(=O)(=O)c1ccccc1 | 37%[activator] | -15%
CCOc1nc2c(c(=O)n(C)c(=O)n2C)n1Cc1ccccc1Cl | 0% | 10%
O=C(Nc1cccc(-c2nc3ccccc3o2)c1)C1CCCC1 | 9% | 0%
CCOc1ccc(C2CC(=O)Nc3c2c(=O)[nH]c2ncnn32)cc1 (stereo not given) | -10%&-10% | 3%&-8%
COc1cc(Cl)c(NC(=O)c2cc(S(=O)(=O)N3CCOCC3)cn2C)c(OC)c1 | 0% | 3%
COc1ccccc1/C=C/c1nc(C#N)c(N2CCCCCC2)o1 | 10%&47% | 84%&33%[activator]
Fc1ccc(CNCc2ccc(-c3ccc(F)cc3)o2)cc1 | -6% | 87%[activator]
COc1cc(NC(=O)c2cc3ccccc3oc2=O)cc(OC)c1OC | 10% | 45%[activator]
NS(=O)(=O)c1ccc(NNC(=O)c2ccc(NS(=O)(=O)c3cccs3)cc2)c([N+](=O)[O-])c1 | -9%[1.06 µM] | 3%
CCS(=O)(=O)N1CCc2cc(C(=O)NCc3ccc(Cl)cc3)ccc21 | 25% | -3%
N#Cc1nc(-c2ccc(S(=O)(=O)N3CCCC3)cc2)oc1NCCN1CCOCC1 | 14% | 2%
COC(=O)c1ccc(C2c3c(-c4cccc(OC)c4)n[nH]c(=O)c3Nc3nnnn32)cc1 (stereo not given) | 1% | 4%
O=C(Nc1ccccc1F)C1CCN(S(=O)(=O)c2ccc3c(c2)CCCN3C(=O)C2CCC2)CC1 | -4% | -19%
Cc1ccccc1CNC(=O)c1ccc(NC(=O)N2CCCCc3ccccc32)cc1 | -16% | -5%
C=CC[C@]1(O)CC[C@H]2[C@@H]3CCC4=CC(=O)CCC4=C3C=C[C@@]21C | -16% | u
Cc1cc(C)c(NC(=O)C(C)Oc2ccc(C#N)cc2)c(C)c1 (stereo not given) | 14% | 8%
CCOc1ccccc1NC(=O)N(Cc1ccc(F)cc1)C1CCN(CC)CC1 | 0% | 0%
Next section
SMILES | 2A Renilla | StopGo FLuc
COc1ccc(C2=C(O)C(=O)N(Cc3ccncc3)C2c2ccc(Br)cc2)cc1 (stereo not given) | 77%[activator] | -6%
COc1ccc(OC)c(NS(=O)(=O)c2ccc3c(c2)C(C)(C)C(=O)N3C)c1 | 250%[activator] | 0%
COc1ccccc1CNS(=O)(=O)c1ccc2c(c1)NC(=O)C(C)C(=O)N2 (stereo not given) | -6% | -5%
CC(C)c1ccc(NC(=O)COC(=O)CCC2CCCC2)cc1 | 5% | 41%[activator]
c1cc(-c2noc(CSc3nnnn3C3CCCC3)n2)cs1 | 24% | 83%[activator]
CC(NCCC(N)=O)c1cccc(Cl)c1 (stereo not given) | -6% | 9%
Cc1oc2ccc(O)c(CN3CCOCC3)c2c1C(=O)Nc1ccc(C(C)C)cc1 | -7% | -10%
Cc1cc(O)ccc1Cl | 4% | 22%[11.5 µM]
O=C(Cc1n[nH]c(=O)c2ccccc12)NCC1(N2CCCCC2)CCCCC1 | -3% | -7%
O=C(Nc1ccc(Cl)c(-c2nc3cc(Cl)ccc3o2)c1)c1cc2ccccc2o1 | 2% | 57%[activator]
COc1ccc2nc(NC(=O)c3nc(SCc4ccccc4F)ncc3Cl)sc2c1 | -2% | -12%
CCOC(=O)CN1CCCC1c1ccsc1 (stereo not given) | 1% | -5%
Cc1cccc(NS(=O)(=O)c2ccc3c(c2)CCCN3C(=O)C2CCC2)c1C | -4% | u
Cc1ccc(OCCn2c(-c3ccc(Br)cc3)nc3ccccc3c2=O)cc1C | -11% | 24%
Cc1cc(C(=O)Cn2cnc3c2c(=O)n(C)c(=O)n3C)c(C)n1Cc1ccccc1 | u | u
CC(C)n1c(N2CCCCC2)nc2c1c(=O)n(C)c(=O)n2C | -4% | -4%
Cc1ccc(-c2cc(=O)c3cc(Cl)ccc3o2)cc1 | 0% | 37%[activator]
CCOc1ccc(-c2nnc(SCC(=O)Nc3ccccc3C(F)(F)F)o2)cc1 | -7% | 43%[activator]
Cc1nnc(N2C(=O)c3oc4ccccc4c(=O)c3C2c2ccc(Cl)cc2)s1 (stereo not given) | -8% | -10%
Cc1ccc(-n2nnc(-c3nsc(NC(=O)c4ccccc4C)n3)c2C)cc1Cl | 21% | 41%[activator]
O=C(Nc1ccc(OC(F)F)cc1)c1cc(=O)[nH]c2ccccc12 | -9% | -7%
O=C(Nc1cccc(Cl)c1)c1cnc(N2CCCCC2)c2ccccc12 | 1% | -4%
COc1ccc(CNC(=O)c2cnn(-c3ccc(C)cc3)c2C2CCN(C(=O)OC(C)(C)C)CC2)cc1 | 56%[activator] | 5%
COc1cccc(CNC(=O)CN2C(=O)N(c3ccc(C)cc3C)S(=O)(=O)c3ccccc32)c1OC | -21% | u
O=c1[nH]c2cc(Cl)ccc2n1C1CCNCC1 | -17% | -1%[11.5 µM]
Carrying on.
SMILES | 2A Renilla | StopGo FLuc
Cc1nnc2n1-c1sc(CCC(=O)N3CCOCC3)cc1C(c1ccccc1Cl)=NC2 | -5% | -13%
Cc1ccc(Cl)cc1N1CCN(CC(=O)N(C)CC(=O)Nc2ccccc2C(F)(F)F)CC1 | 0% | 0%
Cc1cccc(N2CCN(C(=O)c3cc4c(=O)[nH]c5ccc(C)cc5c4s3)CC2C)c1 (stereo not given) | -8% | 8%
CCc1cccc(NS(=O)(=O)c2ccc(-c3coc(C)n3)cc2)c1 | 14% | u
O=c1[nH]c(N2CCN(c3ccccc3)CC2)nc2c1CCCC2 | 61%[activator] | 27%
COCCn1c(SCc2c(Cl)cccc2Cl)nnc1-c1cccc(C)c1 | -5% | u
Cc1c(F)cccc1NS(=O)(=O)c1cccs1 | 67%[activator] | -14%
Cc1nc2ccccc2n(CC(=O)NCCN2CCN(c3cccc(Cl)c3)CC2)c1=O | 33%[activator] | 57%[activator]
Nc1nccnc1C(=O)NCC(c1ccccc1)c1ccccc1 | 2% | 14%
CCCCn1c(=O)[nH]c(=O)c2c1nc(-c1csnn1)n2CC(C)C | -4% | 4%
O=C(CCCc1nc2ccccc2s1)NC1CCC2CCCCC2C1 (stereo not given) | -4% | 7%
COc1ccccc1NC(=O)NCc1cccn1Cc1ccccc1 | 62%[activator] | 1%
CCOc1ccc(Oc2ccc(NC(=O)c3ccc4c(c3)NC(=O)CS4)cc2)cc1 | 3%[1.06 µM] | u
COc1cccc(CNC(=O)CN2C(=O)CSc3c2c(C)nn3-c2ccccc2)c1OC | 0% | u
Cc1cc(=O)n(Cc2cccc(Br)c2)c2c1c(C)nn2-c1ccccc1 | -12% | -23%
COc1ccc(-c2c(C)c3cc(OC(=O)N4CCOCC4)ccc3oc2=O)cc1 | -2% | -14%
Cc1ccccc1NC(=O)CCOc1ccccc1 | 0% | 42%[activator]

3 structures from above, arranged by SMILES length, low to high:
SMILES | 2A Renilla | StopGo FLuc
CCCCn1c(=O)[nH]c(=O)c2c1nc(-c1csnn1)n2CC(C)C | -4% | 4%
Cc1nnc2n1-c1sc(CCC(=O)N3CCOCC3)cc1C(c1ccccc1Cl)=NC2 | -5% | -13%
Cc1ccc(Cl)cc1N1CCN(CC(=O)N(C)CC(=O)Nc2ccccc2C(F)(F)F)CC1 | 0% | 0%

Given with tabs: 5 of the compounds above
mol	2A Renilla	StopGo FLuc
COc1ccccc1NC(=O)NCc1cccn1Cc1ccccc1	62%[activator]	1%
Cc1nnc2n1-c1sc(CCC(=O)N3CCOCC3)cc1C(c1ccccc1Cl)=NC2	-5%	-13%
Cc1c(F)cccc1NS(=O)(=O)c1cccs1	67%[activator]	-14%
CCOc1ccc(Oc2ccc(NC(=O)c3ccc4c(c3)NC(=O)CS4)cc2)cc1	3%[1.06 µM]	u
COCCn1c(SCc2c(Cl)cccc2Cl)nnc1-c1cccc(C)c1	-5%	u
